From PubChem BioAssay
Vaccinia mCherry = qHTS for Stage-Specific Inhibitors of Vaccinia Orthopoxvirus: mCherry Reporter Primary qHTS; Potency, µM (top dose mostly 36.5 µM), for the others: at the highest dose activity change, negative = inhibition, most hits filed as inhibitors; Vaccinia virus mCherry reporter infection, fluorescence; about a quarter of the inactives have no number; actives 0.63% (n = 310,000); active = well fitted inhibition curve with a large enough effect; inconclusive = small, poorly fitted or top-dose-only effect; inactive = no such curve, though single readings can be large or run the other way; tested in A549 cells; note: nearly all actives have a fitted effect of over 35% in size; inactives centre near -10
VACV Venus inh = qHTS for Stage-Specific Inhibitors of Vaccinia Orthopoxvirus: Venus Reporter Primary qHTS. AID 720580, 2013. Vaccinia virus Venus reporter expression, fluorescence. Potency, µM (titrated, usually from 36.5 µM), inactives show at the highest dose activity change, negative = inhibition, usual class: inhibitors. actives 0.46% (n = 330,000); active means well fitted inhibition curve with a large enough effect; inconclusive means small, poorly fitted or top-dose-only effect; inactive means no such curve, though single readings can be large or run the other way; tested in A549 cells; note: nearly all actives have a fitted effect of over 30% in size; inactives centre near -10
The depositor's hits bear a star; i = inactive; ? = inconclusive; . = no result given; [ ] = another dose, or the depositor's remark. % is set by controls: 0 for no effect and ±100 for the full control effect; potency is the fitted concentration of half-maximal effect.

Second line of a record: Vaccinia mCherry	VACV Venus inh
- Cc1ccc(N(C(=O)c2ccc3c(c2)OCO3)C2C=CS(=O)(=O)C2)cc1 (stereo not given)
    i	-18%
- CCOC(=O)Cc1csc(NC(=O)COc2ccc(OC)cc2)n1
    i	-4%
- CCc1ccc(NC(=O)C/C(C)=N/NC(=O)OCc2ccc(OC)cc2)cc1
    i	-13%
- COc1ccccc1/C=N/NC(=O)CNC(=O)c1ccc(S(=O)(=O)N2CCCC2)cc1
    -3%	-12%
- COc1ccc2oc(C(=O)OCC(=O)N(C)CC(=O)Nc3ccc(F)cc3)c(C)c2c1
    -13%	-8%
- CCOC(=O)Cn1nc(-c2ccccc2)c2cnc3ccc(OCC)cc3c21
    -6%	-1%
- O=C(c1ccccc1)C1CN(Cc2ccccc2)CCC1(O)c1ccccc1 (stereo not given)
    -10%	-14%
- Cc1cccc(C)c1Oc1nc(-c2ccccc2)ncc1S(=O)(=O)c1ccccc1
    .	-11%
- Cc1cc(C(F)(F)F)nn2cnnc12
    i	-9%
- COc1ccccc1-c1cc(C(F)(F)F)nc(S(=O)(=O)CCCC(=O)NCc2ccc(F)cc2)n1
    ?	-16%
- CC[C@@]1(C(=O)OC)N[C@H](CN(C)S(=O)(=O)c2ccc(-c3ccccc3)cc2)[C@@H]2C(=O)N(C)C(=O)[C@@H]21
    -8%	-14%
- COC(=O)c1ccc2nc(-c3ccc(F)cc3)c(Cc3ccc(OC)cc3C)n2c1
    -14%	-9%
- C(#Cc1ccccc1)C[N+]1(CC#Cc2cccc3ccccc23)CCOCC1
    i	-6%
- CN(C(=O)CCc1nnc(-c2ccc(-c3ccccc3)cc2)o1)C1CCOCC1
    -1%	-13%
- Cc1ccc(NC(=O)c2sc3ncn(CC(=O)N4CCN(c5ccccn5)CC4)c(=O)c3c2C)cc1F
    -11%[7.34 µM]	-9%[7.34 µM]

Additional records follow.
Second line of a record: Vaccinia mCherry	VACV Venus inh
- CCc1ccc(NC(=O)C2CCN(S(=O)(=O)c3c(C)noc3/C=C/c3cccs3)CC2)cc1
    -16%	-18%
- COC(=O)C(NS(=O)(=O)c1ccccc1Cl)c1ccccc1 (stereo not given)
    i	-2%
- CCCN(CCC)C(=O)Cn1c(=O)n(-c2cccc(C(F)(F)F)c2)c(=O)c2c(C)c(C)sc21
    -2%	3%
- CC(=O)Nc1ccc(NC(=O)C2CC(=O)N(c3ccc(Cl)cc3)C2)cc1 (stereo not given)
    i	-17%
- CC[C@@H]1C=C(C(=O)O)[C@H](c2ccc(C)cc2)N1S(=O)(=O)c1ccc(C)cc1
    -4%	-3%
- Cc1cc(C)c(S(C)(=O)=O)c(S(=O)c2ccc(Cl)cc2)n1 (stereo not given)
    .	-23%
- O=C(O)C(O)(c1ccccc1)C1CCCC1 (stereo not given)
    -28%	-23%
- O=C(c1ccco1)N1CCN(C(=S)Nc2cc(F)cc(F)c2)CC1
    i	-18%
- CCOc1ccc(NCCC(=O)c2ccc3c(c2)OCO3)cc1
    -8%	-3%
- O=C(Nc1cccc(Cl)c1)C1CCCN(S(=O)(=O)c2cnc[nH]2)C1 (stereo not given)
    24%	0%
- O=C(COc1ccccc1)Nc1nnc(COc2ccccc2)s1
    -3%	-12%
- Cc1sc2ncnc(N/N=C/c3ccccc3O)c2c1C
    3.5µM*	?
- Nc1ccc(S(=O)(=O)NC2(C(F)(F)F)NC(=O)N(c3ccccc3Cl)C2=O)cc1 (stereo not given)
    -14%	-16%
- O=C(c1cccc(S(=O)(=O)N2CCCC2)c1)N1CCCc2ccccc21
    -7%	-15%
- C[C@@H]1CN([C@@H](C)CO)C(=O)CCCn2nncc2CO[C@@H]1CN(C)C(=O)Nc1cccc(C(F)(F)F)c1
    -25%	-9%

In the list so far, these contain two or more sulfur atoms:
Second line of a record: Vaccinia mCherry	VACV Venus inh
- CCc1ccc(NC(=O)C2CCN(S(=O)(=O)c3c(C)noc3/C=C/c3cccs3)CC2)cc1
    -16%	-18%
- Cc1cc(C)c(S(C)(=O)=O)c(S(=O)c2ccc(Cl)cc2)n1 (stereo not given)
    .	-23%

Filtered by structure, the entries above containing a thiophene ring, fused or not (4)
Second line of a record: Vaccinia mCherry	VACV Venus inh
- Cc1ccc(NC(=O)c2sc3ncn(CC(=O)N4CCN(c5ccccn5)CC4)c(=O)c3c2C)cc1F
    -11%[7.34 µM]	-9%[7.34 µM]
- CCc1ccc(NC(=O)C2CCN(S(=O)(=O)c3c(C)noc3/C=C/c3cccs3)CC2)cc1
    -16%	-18%
- CCCN(CCC)C(=O)Cn1c(=O)n(-c2cccc(C(F)(F)F)c2)c(=O)c2c(C)c(C)sc21
    -2%	3%
- Cc1sc2ncnc(N/N=C/c3ccccc3O)c2c1C
    3.5µM*	?

(continued)
Second line of a record: Vaccinia mCherry	VACV Venus inh
- CSc1nnnn1CCn1nnnc1SC
    -4%	-20%
- COc1ccc(C)cc1C(=O)C1CC(C(=O)O)C(C)(C)C1C (stereo not given)
    .	-6%
- CC(Cc1ccccc1)[n+]1cc(/N=C(\N)[O-])on1 (stereo not given)
    -6%	-1%
- CC(C)=CCC/C(C)=C/CNC(=O)C[C@H]1C[C@H](C(=O)N(C(C)C)C(C)C)[C@@]2(C)c3[nH]c4cc(CCC(=O)N(C)C)ccc4c3CCN2C1=O
    -20%	?
- COc1ccccc1N1CCN(CCc2n[nH]c(=S)n2-c2ccccc2)CC1
    -15%	-9%
- CC(C)Oc1ccc(-c2nc(NCC3CCCO3)c3ccccc3n2)cc1 (stereo not given)
    -20%	-5%
- Cc1cc(-n2c(C)cc(C(=O)CN3C(=O)NC4(CCCCC4C)C3=O)c2C)no1 (stereo not given)
    i	-9%
- Cc1ccccc1C(=O)NC=C1C(=O)OC(C)(C)OC1=O
    i	-12%
- COc1cc(OC)c(/C=C/c2cc3ccccc3c[n+]2C)c(OC)c1
    ?	?
- COc1ccc(OC)c(S(=O)(=O)N2CCN(CC(O)COc3ccccc3)CC2)c1 (stereo not given)
    -16%	-21%
- O=C(NC1(C(F)(F)F)NC(=O)N(C2CCCCC2)C1=O)c1ccco1 (stereo not given)
    -20%	-16%
- CCCS(=O)(=O)N1CCCC(C(=O)NCCc2ccc(OC)c(OC)c2)C1 (stereo not given)
    .	-8%
- O=C(CCc1nc2sc3c(c2c(=O)[nH]1)CCCC3)Nc1ccccc1Cl
    -13%	-10%
- CCCOCC(O)CC(CC)C(=O)NNC(=S)Nc1ccccc1 (stereo not given)
    ?	-16%
- OCCc1ccc(O)cc1
    -1%	-20%

(list continues)
Second line of a record: Vaccinia mCherry	VACV Venus inh
- C[C@@H](NC(=O)c1[nH]cnc1C(=O)Nc1ccc(Cl)cc1)c1ccccc1
    ?	?
- COc1ccc(/C(N)=N/OC(=O)C2CCC(=O)N2S(=O)(=O)c2ccc(C)cc2)cc1 (stereo not given)
    -9%	-7%
- CCOC(=O)c1cc(CC)sc1NC(=O)C(c1ccccc1)c1ccccc1
    i	-12%
- Cc1cc(C)c(C)c(C(=O)C(=O)c2ccccc2)c1
    i	6%
- CCOC(=O)/C(N=Nc1ccc(F)cc1)=C(/O)c1ccc([N+](=O)[O-])cc1
    -13%	-15%
- C=CCOc1ccc(S(C)(=O)=O)cc1
    i	-4%
- CCN=C1S/C(=C\c2cc(OCC)c(O)cc2Br)C(=O)N1CC
    ?	?
- COc1ccc(C2CC(c3ccc(Br)cc3)=NN2C(=O)c2cccnc2)cc1 (stereo not given)
    ?	?
- CCOc1cccc(CN2CCC(Oc3ccc(C(=O)N4CCCC4)cc3)CC2)c1O
    -17%	?
- COc1ccc(OCc2cc(C(=O)NCCN3CCCc4ccccc43)no2)c(Cl)c1
    -13%	-25%
- N/C(=N\OC(=O)/C=C/c1ccc(Br)cc1)c1ccccn1
    -19%	-16%
- Cc1cccc(N2C(=O)C3C4CC(C(Br)C4Br)C3C2=O)n1 (stereo not given)
    -17%	-10%
- O=C1CC(C(=O)N2CCN(Cc3ccccc3)CC2)CN1Cc1ccccc1 (stereo not given)
    -14%	-13%
- CC1CC(C)(C)NCc2ccccc21 (stereo not given)
    .	-24%
- CC(C)C1C(=O)N(Cc2cn(CCC3OCCO3)nn2)CCS(=O)(=O)N1Cc1ccc(-c2ccc(Cl)c(Cl)c2)cc1 (stereo not given)
    -12%	?

Additional compounds.
Second line of a record: Vaccinia mCherry	VACV Venus inh
- COc1cccc2cc(C(=O)N(Cc3cccs3)Cc3cccs3)c(=O)oc12
    -4%	-13%
- O=C(NCCc1ccc(Cl)cc1)C(=O)NCC(c1cccs1)S(=O)(=O)c1cccs1 (stereo not given)
    -4%	?
- C[C@H]1COC(=O)[C@H](CC(=O)OC(C)(C)C)C/C=C\C[C@@H](CC(=O)N(CCO)Cc2ccccc2)C(=O)N1
    -11%	-10%
- CCN(CC)CCNC(=O)c1cc2cc(Br)ccc2s1
    -12%	-17%
- CCOC(=O)C1CCN(c2cc(=O)n(-c3ccc(OC)cc3)c(=O)[nH]2)CC1
    -11%	3%
- CN(C)S(=O)(=O)c1cccc(C(=O)N(Cc2ccc(F)cc2)Cc2ccco2)c1
    .	-19%
- Cc1ccc(Cl)cc1NC(=O)c1cnn2c(C(F)F)cc(-c3ccccc3)nc12
    -13%	-10%
- CSc1cccc(NC(=O)C2CCCN(S(C)(=O)=O)C2)c1 (stereo not given)
    -22%	-15%
- CCCn1c(C)cc(C(=O)COC(=O)c2ccc[nH]c2=O)c1C
    i	-14%
- CC(C)CC(NC(=O)C1CCC(C)CC1)C(=O)NCCN1CCOCC1 (stereo not given)
    2%	1%
- Cc1ccc(Cl)cc1NC(=O)COC(=O)CC(C)(C)CC1=NS(=O)(=O)c2ccccc2N1
    -16%	-16%
- NCCCn1c(C(=O)c2ccc(Cl)cc2)c2ccc([N+](=O)[O-])cc2[n+]1[O-]
    7.1µM*	?
- Cc1cc(NC(=O)c2ccc3c(c2)C(=O)N(CCC(C)C)C3=O)no1
    -13%	-3%
- CS(=O)(=O)c1nc(-c2ccccc2)cc(-c2ccccc2)c1C#N
    -7%	-21%
- Cc1cc2nn(-c3ccc(F)cc3)nc2cc1NC(=O)c1cccc([N+](=O)[O-])c1C
    4%	-5%

(continued)
Second line of a record: Vaccinia mCherry	VACV Venus inh
- O=C(Nc1ccc(Cl)cc1)C1C2C=CC3(O2)C1C(=O)N(CCN1CCCCC1)C3C(=O)NC1CCCCC1 (stereo not given)
    i	-8%
- O=C(CSc1nc(-c2ccco2)cc(C(F)(F)F)n1)Nc1ccc(C(=O)N2CCCCC2)cc1
    -16%	-28%
- CC(C)c1onc(C(=O)NC(C)c2ccccc2)c1[N+](=O)[O-] (stereo not given)
    0%	-23%
- COc1ccccc1-c1csc(C(NC(C)=O)c2ccccc2)n1 (stereo not given)
    i	-16%
- COC(=O)c1cc(C(=O)OCC(=O)NC(=O)c2ccccc2)cc([N+](=O)[O-])c1
    i	-11%
- O=C(CCNC(=O)Cn1ccc2ccccc2c1=O)NCCc1ccc(Cl)cc1
    -21%	-20%
- CN(C)C(CNC(=O)CNC(=O)Cc1cccc2ccccc12)c1ccccc1 (stereo not given)
    -23%	-3%
- O=C(c1ccccc1)N1CCN(C(=O)c2ccc(OC(F)(F)F)cc2)CC1
    .	?
- Cc1nc2ccccc2n1CC(O)COc1ccc(C(=O)O)cc1 (stereo not given)
    -3%	3%
- CCN(C(=O)COC(=O)c1cc(S(=O)(=O)Nc2c(C)n(C)n(-c3ccccc3)c2=O)ccc1Cl)C1CCCCC1
    -13%	-21%
- CC(=O)N(CC1CCCO1)c1nnc(-c2cnccn2)s1 (stereo not given)
    -16%	-13%
- CCN(CC)c1nc(OC)nc(-n2nnc(C(C)=O)c2C)n1
    .	-25%
- COc1ccc(-c2c3c(nc4sc(C(=O)Nc5ccc(Cl)cc5)c(N)c24)CC(C)(C)CC3=O)cc1
    -1%	-2%
- COCCNC(=O)Cn1c(=O)n(Cc2ccc(C(=O)NCc3ccco3)cc2)c(=O)c2ccccc21
    -21%	-3%
- COc1ccccc1CNC(=O)CCCn1c(=O)c2ccccc2n(Cc2ccc(C)cc2)c1=O
    -16%	-13%

The list continues.
Second line of a record: Vaccinia mCherry	VACV Venus inh
- CCC[C@@H](CN1CCC[C@H]1CN1C(N)=NC[C@H]1C(C)C)N1C[C@@H]([C@H](C)CC)N(CCCC2CCCC2)C1=N
    i	-14%
- CCOC(=O)c1noc2ncn(CC(=O)Nc3ccc(C)c(F)c3)c(=O)c12
    2%	6%
- O=C(Nc1cnn(Cc2ccccc2)c1)NC12CC3CC(CC(C3)C1)C2
    ?	-30%
- COc1ccc2c(c1OC)C(=O)OC2Nc1nc(-c2ccc([N+](=O)[O-])cc2)cs1 (stereo not given)
    -19%	-1%
- Cc1ccc(C)c(/C(O)=C2\C(=O)C(=O)N(Cc3cccnc3)C2c2cccnc2)c1 (stereo not given)
    -20%	-12%
- Nc1c(C(=O)NCC2CCCO2)c2nc3ccccc3nc2n1/N=C/c1ccncc1 (stereo not given)
    2%	1%
- CCc1cccc(NC(=O)C(Cc2ccccc2)NS(=O)(=O)c2ccc3c(c2)c(=O)n(C)c(=O)n3C)c1 (stereo not given)
    -10%	-9%
- O=c1c2ccccc2nc(/C=C/c2ccc(O)cc2)n1-c1cccc(O)c1
    -24%	8%
- Cc1cc(C)c(S(=O)(=O)NCC(=O)NCc2cc(=O)n(C)c(=O)n2C)c(C)c1
    -20%	-24%
- Cc1ccc(NC(=O)C(=O)c2cc(C)n(-c3ccc(F)cc3)c2C)cc1C
    -7%	-9%

Quoted from the listing.
Under VACV Venus inh, CCOC(=O)c1noc2ncn(CC(=O)Nc3ccc(C)c(F)c3)c(=O)c12 has 6%
Under Vaccinia mCherry, Cc1cc(C)c(S(=O)(=O)NCC(=O)NCc2cc(=O)n(C)c(=O)n2C)c(C)c1 has -20%
